Source: PubChem (ICCB-Longwood Screening Facility, Harvard Medical School)
Sa helicase inh: inhibitors of S. aureus replicative helicase, primary screen, biochemical, fluorescence unwinding readout. purified S. aureus helicase, fluorescence unwinding assay; about half of the hits fall short of the stated cut. inhibition, %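 (tested at about 80 µM)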. 0.05% of 120,000 active;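 active = both duplicates at 50% or more, or one of them with a favoured structure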;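 also: 0% = mean of negative control wells and 100% = mean of positive control wells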
MgrA DNA FP: S. aureus MgrA activity modulators, primary screen, biochemical, S. aureus Newman, fluorescence polarization. MgrA-DNA binding. inhibition, %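 (about 10 µg/mL by stock and volumes)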. 0.13% of 84,000 active;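 active = above 50% in either of two replicates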;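 also: 0% = protein plus DNA without compound and 100% = DNA alone without protein; higher means less MgrA bound to DNA so lower polarization; one replicate is shown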
The depositor's hits bear a star; . = no result given.

canonical_smiles	Sa helicase inh	MgrA DNA FP
CS(=O)(=O)Nc1ccc(C(=O)Nc2ccccc2)cc1	14	.
CC(C)n1c(NN)nc2ccccc21	-14	-0.8
N#CC(C(=O)N1CCCC1)C(=S)Nc1cccc(C(F)(F)F)c1 (stereo not given)	.	-1.6
O=C(Nc1ccccc1)N1CCN(S(=O)(=O)c2ccccc2)CC1	-22	-1.3
Cc1cc(SCC(=O)NC(=O)NCc2ccco2)nc2c(C)cccc12	0	.
CN(C)c1ccc(/C=C2/N=C(c3ccccc3)OC2=O)cc1	.	-6.8
O=C(Cc1ccccc1)Nc1c(C(=O)N2CCCCC2)cnn1-c1ccccc1	12	-1.0
CN(CC(=O)O)S(=O)(=O)c1ccc(Oc2ccccc2)cc1	-11	-0.4
CN(CC(=O)NCc1ccccc1F)C(=O)c1ccco1	7	.
CC(C(=O)OCn1nnc2ccccc2c1=O)N1C(=O)c2ccccc2C1=O (stereo not given)	-12	.
CC(C)n1nccc1C(=O)O	-4	-1.0
Brc1ccc2c(c1)c1ccccc1n2CN1CCCCC1	1	.
CCCc1c(-c2ccccc2)nc2sc3c(c2c1N)CCCCC3	-10	7.7
CSc1ccccc1NS(=O)(=O)c1cccs1	5	-1.2
Nc1nonc1-c1ccccc1	11	-0.3
N/C(=N\N=C1CCCCCC1)SCn1nnc2ccccc2c1=O	-8	.
CC1(C)CSC(=NCc2ccccc2)N1C(=O)Cn1[nH]c(=O)c2ccccc2c1=O	8	.
O=C(/C=C/c1ccc(Br)o1)OCc1ccccc1	-4	0.2
O=C(OCn1nnc2ccccc2c1=O)C1COc2ccccc2O1 (stereo not given)	18	.
COc1ccc(CC(=O)NCCc2cc3cc(C)c(C)cc3[nH]c2=O)cc1OC	-18	.
COc1ccccc1-c1nnc(C2CCN(S(=O)(=O)c3ccc(Cl)s3)CC2)o1	24	.
O=C(CSc1ccccn1)NCc1ccccc1	11	0.9
CC(C)(C)C(=O)c1cnc(Nc2ccccc2)s1	.	3.5
CCC(Sc1ccc(C(=O)O)cc1)C(=O)O (stereo not given)	15	2.6
COc1ccc(CN2C(=O)C(C)N(c3ccc(C)cc3)C2=O)cc1F (stereo not given)	-3	.

Rewritten as labelled records: part of the list above.
O=C(Cc1ccccc1)Nc1c(C(=O)N2CCCCC2)cnn1-c1ccccc1
- Sa helicase inh = 12
- MgrA DNA FP = -1.0

CN(C)c1ccc(/C=C2/N=C(c3ccccc3)OC2=O)cc1
- Sa helicase inh = .
- MgrA DNA FP = -6.8

CCC(Sc1ccc(C(=O)O)cc1)C(=O)O (stereo not given)
- Sa helicase inh = 15
- MgrA DNA FP = 2.6

CS(=O)(=O)Nc1ccc(C(=O)Nc2ccccc2)cc1
- Sa helicase inh = 14
- MgrA DNA FP = .

(next part)
canonical_smiles	Sa helicase inh	MgrA DNA FP
Nc1ncc(Br)cc1S(=O)(=O)NCc1cccnc1	8	0.8
CCOC(=O)C1(C#N)C(=O)C(C#N)=C2CCCCC2C1c1ccccc1 (stereo not given)	-474	.
Cn1cnc2nc(SCC(=O)O)nc(N)c21	11	.
CCCCN(C)C(=O)c1ccc2c(c1)N(Cc1ccccc1)C(=O)c1ccccc1S2=O (stereo not given)	-16	.
Cn1c(NC(=O)Cc2ccccc2)cc(=O)n(C)c1=O	3	.
CC1CN(C(=O)n2ccnc2)c2ccccc2S1 (stereo not given)	0	1.4
O=C(O)c1coc2ccccc2c1=O	.	-0.4
NC(=O)COC(=O)c1cccc(S(=O)(=O)N2CCc3ccccc3C2)c1	20	.
CC(=O)Nc1ccc(SC(C)C(=O)NC(N)=O)cc1 (stereo not given)	-4	.
CC(C)(C)C(=O)C[n+]1ccc(C(N)=O)cc1	1	0.3
COc1ccc(NC(=O)OCC(F)(F)F)cc1	5	-1.5
CCC(C)NC(=O)CC(c1ccc(OC)cc1)n1cccc1 (stereo not given)	-2	0.2
CC(C)(C)Cc1ccc(OCCCC(=O)O)c(CC(C)(C)C)c1	26	2.1
O=C(O)c1ccccc1-c1nn[nH]n1	7	-3.8
CCOC(=O)c1nc2ccccc2c(=O)[nH]1	5	-2.5
N#C/C(=C\c1ccc(Cl)cc1Cl)c1c[nH]c2ccccc12	.	-0.2
O/N=C/c1cn(-c2ccccc2)nc1-c1cccnc1	-16	.
CC(=O)Nc1ccc(OS(=O)Nc2nnc(C)c3ccccc23)cc1 (stereo not given)	-2	-3.9
COC(=O)c1c(O)c(C=Nc2ccc(Br)cc2)c(=O)n2c1CCC2	0	.
Cc1ccc2oc(=O)c3cnn(CC(=O)NCCCN4CCC(C)CC4)c3c2c1	13	-2.4
CC(=O)Nc1nc2ccc(S(C)(=O)=O)cc2s1	-17	.
COc1ccccc1N(C)C(=O)CCS(=O)(=O)c1ccc2c(c1)OCC(=O)N2	-1	0.9
CCn1c(=O)c2cc(C(=O)N3CCN(Cc4ccccc4)CC3)sc2c2ccccc21	3	-0.2
Cc1cc(NC(=O)c2cccc(F)c2)ccc1NC(=O)c1ccco1	4	2.3
Brc1ccc(-c2nnc(CC34CC5CC(CC(C5)C3)C4)o2)cc1	-9	.

Compound profiles, from the list above. Order of values: Sa helicase inh | MgrA DNA FP
Cc1ccc2oc(=O)c3cnn(CC(=O)NCCCN4CCC(C)CC4)c3c2c1 is listed with 13 | -2.4
Cn1cnc2nc(SCC(=O)O)nc(N)c21 is listed with 11 | .
Nc1ncc(Br)cc1S(=O)(=O)NCc1cccnc1 is listed with 8 | 0.8

The results go on.
canonical_smiles	Sa helicase inh	MgrA DNA FP
CC(C)(C)c1ccc(-c2nnc(-c3ccccc3NC(=O)NC(=O)c3ccccc3Cl)o2)cc1	.	5.3
CC1/C(=N\O)CC(c2ccccc2)N(C)C1c1ccccc1 (stereo not given)	.	-0.8
CC1=C(C(=O)Nn2cnc3cccc(F)c3c2=N)Sc2ccccc2N1	.	5.6
OCCCc1nc2n(n1)C(c1ccccc1)C=C(c1ccccc1)N2 (stereo not given)	-21	.
S=C(NCCc1ccccc1)N1CCN(c2ncccn2)CC1	6	-0.1
O=c1[nH]cnc2c1sc1nc(-c3ccccc3)cc(-c3ccccc3)c12	-2	-0.4
COc1cccc2cc(C(=O)NC(C)=O)c(=Nc3cccc(C(F)(F)F)c3)oc12	.	0.5
CCOc1ccc(C(=O)C(C)Sc2nnc(-c3ccc(Br)cc3)o2)cc1 (stereo not given)	.	2.1
COc1cccc(-n2c(=S)sc3c(=O)n4[nH]c(=O)c5ccccc5c4nc32)c1	9	.
CCn1c(SC(C)C(=O)c2ccc(Br)cc2)nnc1-c1cccs1 (stereo not given)	-13	.
O=c1oc2ccccc2n1Cn1c(=O)oc2ccccc21	8	-1.3
Cc1cc(=O)oc2c(CN(C)C)c(O)ccc12	-3	0.1
COCCNC(=O)C1CCN(C(=O)C(C)(C)C)CC1	21	.
CCC(=O)Oc1ccc2c3c(c(=O)oc2c1)CCC3	8	4.0
CSC1=NS(=O)(=O)c2c(C)nn(C)c2S1	.	-0.2
O=C(c1ccccc1)N1CCN(c2ccc(NCc3ccc4c(c3)OCO4)cc2)CC1	11	1.1
O=C(O)c1cccc(S(=O)(=O)Nc2ccccn2)c1	-2	-4.8
CC(C)OC(=O)C1CC(C)(O)C(=O)C(C(=O)OC(C)C)C1c1ccc(F)cc1 (stereo not given)	8	.
CCn1cnc2cc(NC(=O)COc3ccccc3)ccc21	17	-3.2
CCc1ccc2nc(NC(=O)Cc3csc(NC(=O)c4ccco4)n3)sc2c1	-15	.
O=C(OCC1CCCN2CCCCC12)c1ccccc1O (stereo not given)	-5	2.1
CC1CC(C)(C)NC(=S)N1CC(=O)NCc1ccc2c(c1)OCO2 (stereo not given)	4	-1.5
CCN(Cc1nc(-c2ccc(OC)cc2)no1)C(=O)/C=C/c1ccc(OC)c(OC)c1	-3	-2.4
CCOc1cccc(OCCOc2ccc(F)cc2)c1	11	0.2
COC(=O)C1(C)CCC(C(=O)O)C1(C)C (stereo not given)	.	0.2

Continuation:
canonical_smiles	Sa helicase inh	MgrA DNA FP
CC1=CCP(=O)(c2ccccc2)C1 (stereo not given)	-4	.
Cc1nnsc1-c1nnc(-c2ccc(C(F)(F)F)cc2)o1	.	0.8
O=C(COC(=O)C1CC2CCCC(C1)C2=O)Nc1cccc2nsnc12 (stereo not given)	-4	.
O=C1C(=Cc2ccc(-c3ccccc3OC(F)(F)F)o2)C(=O)c2ccccc21	.	0.7
NCc1ccc(C(=O)O)o1	0	1.0
Cc1nc2ccccc2c2c1C(=O)N(c1ccccc1)C2=O	22	.
O=C(NCCN1CCOCC1)c1nn2c(c1Cl)NC(c1ccc(Br)cc1)CC2C(F)(F)F (stereo not given)	.	-2.0
CCCn1c(=O)c(CC(=O)OCC)c(O)c2ccccc21	7	4.5
CCOC(=O)N1CCN(C(=O)CSCC(=O)N=c2sc3ccccc3n2C)CC1	10	-1.1
c1csc(C2NCc3c(sc4c3CCCC4)-n3cccc32)c1 (stereo not given)	24	.
c1ccc(-c2noc(CNC3CCCC3)n2)cc1	10	.
CC(C)c1ccc(NC(=O)C(c2ccccc2)N2CCc3ccccc32)cc1 (stereo not given)	10	0.2
COc1cc(/C=C/C(=O)N(Cc2nnc(-c3ccc(Cl)cc3)o2)C2CCCC2)cc(OC)c1OC	-1	.
Cc1nc2ncnn2c(C)c1CCC(=O)N1CCc2ccccc21	7	.
O=C(O)/C=C/c1ccc(-c2ccc(Cl)cc2)o1	-23	5.9
Nc1nc2ccc(S(=O)(=O)N3CCCCC3)cc2s1	-22	.
O=C(C(Cc1ccccc1)n1cccc1)N1CCCCC1 (stereo not given)	6	.
Cc1ccc(/C(N)=N/OC(=O)Oc2ccccc2)cc1	-7	-0.5
C=CCNc1nc(-c2ccc(Cl)cc2)cs1	-14	.
O=S(=O)(c1cc(C(F)(F)F)cc(C(F)(F)F)c1)N1CCSCC1	.	3.7
Cc1nnc(CSc2nnc(COc3ccccc3)o2)o1	1	2.4
COc1ccc(CCC(=O)NCC#N)cc1	22	3.6
CCC(C)C1NC(=O)NC1=O (stereo not given)	9	-0.4
CN(C)CC(C)(C)NS(=O)(=O)c1ccc(Cl)cc1	-10	.
COc1ccc(C(=O)CSc2nnc(-c3ccoc3C)n2CC(C)C)cc1	14	0.3

Carrying on:
canonical_smiles	Sa helicase inh	MgrA DNA FP
Cc1cccc(N=Cc2cc(I)cc(I)c2O)c1	.	2.0
CC1CC(Nc2ncnc3nc[nH]c23)CC(C)(C)C1 (stereo not given)	14	.
Cc1ccn(CCCNC(=O)c2cn(C(C)c3ccccc3F)nn2)n1 (stereo not given)	-2	-2.7
COc1ccc(-n2nnnc2SCC(=O)N2CCCCC2C)cc1 (stereo not given)	5	-1.5
CCCn1c2ccccc2c2ccccc21	5	-0.2
CC1(C)C2CCC13CS(=O)(=O)N1OC13C2 (stereo not given)	-18	.
Cc1noc(C)c1CCC(=O)N1CCC(c2c[nH]c3ccccc23)(c2c[nH]c3ccccc23)CC1	8	.
O=S(=O)(c1cccs1)N1CCN(CCO)CC1	-1	.
CC(C)c1ccccc1OCC(=O)NC(C)C1CCCO1 (stereo not given)	6	-2.3
CCCOc1ccc(=O)n(C)n1	0	-1.4
N#CC(C#N)=C(N)COc1ccc(F)cc1	.	0.1
CC(C)CC(=O)N1CCN(Cc2ccc(Cl)cc2)CC1	11	0.8
CCN(CC)C(=S)NC(=O)C12CC3CC(CC(C3)C1)C2	6	1.8
CN(c1ccccc1)S(=O)(=O)c1ccccc1C(=O)O	-7	.
Cc1ccc2c(CN3CCCCCC3)cc(=O)oc2c1	12	.
Cc1ccc(CSCc2ccc(C(=O)NCCC(C)C)o2)cc1	4	-0.9
c1ccc2[nH]c(SCCCN3CCCCC3)nc2c1	3	2.2
Cc1ccc(S(=O)(=O)NC2C(C)(C)C3CC[C@]2(C)C3)cc1 (stereo not given in full)	.	3.8
O=C(O)CNc1ccccc1C(=O)O	-1	.
Cc1ccc(-c2oc3ncnc(N)c3c2-c2ccc(C)cc2)cc1	6	.
COc1ccc(NC(=O)C(NC(=O)c2ccc(=O)[nH]c2)c2ccc(C)cc2)cc1 (stereo not given)	15	-0.9
Cc1cc(C(=O)OCC(=O)N(C)C2CCCCC2)c(C)o1	4	0.1
O=C(N/N=C/c1cccc(O)c1)N/N=C/c1cccc(O)c1	.	-1.9
CC1(C(=Nc2ccc(Cl)cc2)C(=O)Nc2ccc(Cl)cc2)OC(=O)C[n+]2ccccc21 (stereo not given)	-7	1.5
O=C(NC1CCCC1)c1cc(C2CC2)on1	11	.

These rows are one share of the data (hit frequency here may not be typical).
